YB-1 expr inh: YB-1 expression inhibition. hit rate 0.37% among 30,000. delta delta Cp (YB-1 minus CDIP) (test concentration not listed). U2OS, qRT-PCR YB-1 vs CDIP delta delta Cp, 16 h; stronger effect = higher value; zero = DMSO, each unit about twofold;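 active = delta delta Cp rounded down to an integer at or above 3, about 3 SD of DMSO wells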;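 note: higher means less YB-1 transcript or more CDIP transcript relative to DMSO; stock transfer was 100 nL into about 100 µL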
PD-1 reverse act: activators reversing PD-1 mediated T-cell inhibition; primary human CD4 T cells, PD-L1 beads, CellTiter-Glo 96 h; activation, % (concentration not given with the values); 29,000 tested, under 10 active;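 active = replicate mean of 50% or more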;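 note: 0% = median vehicle wells and 100% = positive control; 100 nL library stock added to about 50 µL; numbers are from one replicate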
MITF inhib: MITF inhibition. AID 2240. TRPM1 promoter luciferase, luminescence, 24 h. inhibition, % (test concentration not listed). hit rate 0.28% among 37,000;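 active = most replicates at 85% or more, or half of them and the mean; inconclusive = half reach 85% but not the mean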;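 note: human melanocyte line stably carrying TRPM1 promoter luciferase reporter; 0% = vehicle wells and 100% = a positive control; the first replicate is given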
Hedgehog inh: Sonic Hedgehog pathway inhibition; Shh-LIGHT2 Gli-luciferase reporter, 30 h; inhibition, % (no concentration beside the values); hit rate 2.1% among 22,000;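 active = replicate mean of 65% or more; inconclusive = mean lower but half the replicates past it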;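 note: pathway switched on by Shh-conditioned medium diluted 1 in 25 in low serum; 100 nL library stock added to about 40 µL; 0% = median of neutral wells and 100% = positive control level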
* = called active by the depositor. The list is partial; rates above refer to the full screens.

Screening CCC(C)C(=O)c1c(O)cc2c(c1O)CC(CC=C(C)C)C(C)(C)O2 (centres undefined) returned YB-1 expr inh 1.2, PD-1 reverse act -7.0, MITF inhib 29 and Hedgehog inh -5.
Screening COc1ccc(S(=O)(=O)Nc2cccc3c2O[C@H](CN(C)C(=O)Nc2cccc4ccccc24)[C@@H](C)CN([C@H](C)CO)C3=O)cc1 returned YB-1 expr inh 0.23, PD-1 reverse act 1.2, MITF inhib 4 and Hedgehog inh inconclusive.
`O=C(Nc1ccccc1C(=O)NCc1ccco1)c1ccccc1I` gave PD-1 reverse act 0.7 and MITF inhib 6.
Screening C[C@H]1CN([C@@H](C)CO)C(=O)c2cc(NC(=O)CCCN(C)C)ccc2O[C@H]1CN(C)S(C)(=O)=O returned YB-1 expr inh 0.22, PD-1 reverse act 1.8, MITF inhib -2 and Hedgehog inh -13.
For COc1ccc(NC(=O)Nc2ccc3c(c2)CC(=O)N([C@@H](C)CO)C[C@H](C)[C@@H](CN(C)S(=O)(=O)c2ccc(C)cc2)O3)cc1 the results were YB-1 expr inh -0.84, PD-1 reverse act -1.7 and MITF inhib -1.
`COc1ccc(S(=O)(=O)N(C)C[C@H]2Oc3ccc(NC(=O)C4CC4)cc3C(=O)N([C@@H](C)CO)C[C@@H]2C)cc1` gave YB-1 expr inh 0.34, PD-1 reverse act 3.9 and MITF inhib -6.
For Cc1noc(C)c1S(=O)(=O)Nc1ccc2c(c1)C(=O)N([C@H](C)CO)C[C@@H](C)[C@@H](CN(C)Cc1ccccc1)O2 the results were YB-1 expr inh 0.19, MITF inhib -8 and Hedgehog inh 11.
For C[C@@H]1CN([C@H](C)CO)C(=O)c2cccc(NS(=O)(=O)c3ccc(Cl)cc3)c2O[C@@H]1CN(C)S(=O)(=O)c1ccc(F)cc1 the results were YB-1 expr inh -0.37, PD-1 reverse act 2.0, MITF inhib -8 and Hedgehog inh -10.
`COc1ccc(NC(=O)Nc2cccc3c2O[C@H](CN(C)S(=O)(=O)c2ccc(OC)cc2)[C@@H](C)CN([C@H](C)CO)C3=O)cc1` gave YB-1 expr inh -0.23, PD-1 reverse act 2.0, MITF inhib -36 and Hedgehog inh -8.
Screening Cc1ccc(NC(=O)CSc2nnc(C)n2-c2ccccc2)cc1C returned PD-1 reverse act 0.9 and MITF inhib -12.
O=C(CSc1nc(-c2ccccc2)c(-c2ccccc2)[nH]1)Nc1ccc(F)cc1 was read as PD-1 reverse act -7.1 and MITF inhib 9.
`C[C@H]1CN([C@@H](C)CO)C(=O)c2cccc(NC(=O)c3nc4ccccc4s3)c2O[C@H]1CN(C)C(=O)NC1CCCCC1` gave YB-1 expr inh -0.16, PD-1 reverse act -2.4, MITF inhib -7 and Hedgehog inh inconclusive.
`CC(C)(C)NC(=O)C12CC3CCC(CC(C3)C1)C2` gave YB-1 expr inh -0.26, PD-1 reverse act -1.5, MITF inhib 7 and Hedgehog inh -31.
CNC(=O)CN(c1ccc(F)cc1)S(=O)(=O)c1ccc2c(c1)OCCO2 was read as PD-1 reverse act 1.8 and MITF inhib -10.
Screening C[C@@H]1CN([C@H](C)CO)C(=O)c2cc(NS(=O)(=O)c3ccc(F)cc3)ccc2O[C@H]1CN(C)Cc1ccc(Cl)c(Cl)c1 returned YB-1 expr inh -0.033, PD-1 reverse act -2.9, MITF inhib -2 and Hedgehog inh -2.
For C[C@@H]1CN([C@@H](C)CO)C(=O)c2cc(NC(=O)CCN3CCOCC3)ccc2O[C@H]1CN(C)C(=O)Nc1ccc(F)cc1 the results were YB-1 expr inh 0.23, PD-1 reverse act -0.1, MITF inhib -6 and Hedgehog inh -47.
C[C@@H]1CN([C@@H](C)CO)C(=O)c2cccc(NS(=O)(=O)c3ccc(Cl)cc3)c2O[C@@H]1CN(C)Cc1ccc2c(c1)OCO2 was read as YB-1 expr inh 0.2, PD-1 reverse act 0.6, MITF inhib -7 and Hedgehog inh 19.
Screening C=CCOC1=NC2C(C(=O)N(C)C(=O)N2C)N1C (centres undefined) returned YB-1 expr inh 0.14, PD-1 reverse act -0.4, MITF inhib -13 and Hedgehog inh 14.
Screening Cc1ccc(-c2nnc(SCC(=O)Nc3c(Cl)cc(Cl)cc3Cl)n2C)cc1 returned PD-1 reverse act 1.8 and MITF inhib 3.
CC(C)C1CCC2(C)CCC(O)C(C)(O)C2C1OC(=O)/C=C/c1ccccc1 (centres undefined) was read as YB-1 expr inh -0.28, PD-1 reverse act -2.1, MITF inhib 0 and Hedgehog inh -23.

A section of the results above, as a working copy:
Screening COc1ccc(S(=O)(=O)Nc2cccc3c2O[C@H](CN(C)C(=O)Nc2cccc4ccccc24)[C@@H](C)CN([C@H](C)CO)C3=O)cc1 returned YB-1 expr inh 0.23, PD-1 reverse act 1.2, MITF inhib 4 and Hedgehog inh inconclusive.
`O=C(Nc1ccccc1C(=O)NCc1ccco1)c1ccccc1I` gave PD-1 reverse act 0.7 and MITF inhib 6.
Screening C[C@H]1CN([C@@H](C)CO)C(=O)c2cc(NC(=O)CCCN(C)C)ccc2O[C@H]1CN(C)S(C)(=O)=O returned YB-1 expr inh 0.22, PD-1 reverse act 1.8, MITF inhib -2 and Hedgehog inh -13.
For COc1ccc(NC(=O)Nc2ccc3c(c2)CC(=O)N([C@@H](C)CO)C[C@H](C)[C@@H](CN(C)S(=O)(=O)c2ccc(C)cc2)O3)cc1 the results were YB-1 expr inh -0.84, PD-1 reverse act -1.7 and MITF inhib -1.

Next structures follow:
Screening C[C@H]1CN([C@@H](C)CO)C(=O)c2cccc(NC(=O)C3CC3)c2O[C@@H]1CN(C)C(=O)Nc1cccc2ccccc12 returned YB-1 expr inh -0.016, MITF inhib 6 and Hedgehog inh -10.
Screening O=C(CSc1nnc(-c2ccco2)o1)c1ccc2c(c1)OCCO2 returned PD-1 reverse act -1.3 and MITF inhib -18.
`COc1ccc(S(=O)(=O)Nc2ccc3c(c2)C(=O)N([C@H](C)CO)C[C@H](C)[C@H](CN(C)C)O3)cc1` gave YB-1 expr inh 0.22, PD-1 reverse act 1.3, MITF inhib 0 and Hedgehog inh -25.
Screening C[C@H](CO)N1C[C@H](C)[C@@H](CN(C)Cc2ccc(C(=O)O)cc2)Oc2c(NS(=O)(=O)c3cccs3)cccc2C1=O returned YB-1 expr inh -0.13, PD-1 reverse act 2.6, MITF inhib -15 and Hedgehog inh -135.
Cc1cc(C)c(NC(=O)CN(C)S(=O)(=O)c2ccc(Br)cc2)c(C)c1 was read as PD-1 reverse act -2.6 and MITF inhib 4.
Screening COc1ccc(S(=O)(=O)N(C)C[C@@H]2Oc3c(NC(=O)C4CC4)cccc3C(=O)N([C@H](C)CO)C[C@@H]2C)cc1 returned YB-1 expr inh 0.21, PD-1 reverse act -0.3, MITF inhib -3 and Hedgehog inh 17.
`CC(C)NC(=O)N(C)C[C@@H]1OCCCC[C@@H](C)Oc2ccc(NS(=O)(=O)c3cn(C)cn3)cc2C(=O)N([C@H](C)CO)C[C@@H]1C` gave YB-1 expr inh -0.061, MITF inhib 0 and Hedgehog inh -32.
For C[C@@H]1CCCCO[C@H](CN(C)S(=O)(=O)c2ccccc2)[C@@H](C)CN([C@H](C)CO)C(=O)c2cc(NS(C)(=O)=O)ccc2O1 the results were YB-1 expr inh -0.31, MITF inhib -1 and Hedgehog inh -12.
C[C@@H]1CCCCO[C@H](CN(C)Cc2ccc(C(=O)O)cc2)[C@@H](C)CN([C@H](C)CO)C(=O)c2cc(NC(=O)Cc3ccccc3)ccc2O1 was read as YB-1 expr inh 0.23, PD-1 reverse act 0.8, MITF inhib -10 and Hedgehog inh -41.
`C[C@H]1CN([C@@H](C)CO)C(=O)c2cc(NC(=O)Nc3ccc(C(F)(F)F)cc3)ccc2O[C@@H]1CN(C)C(=O)Nc1ccc(C(F)(F)F)cc1` gave YB-1 expr inh -0.21, PD-1 reverse act -2.9, MITF inhib 18 and Hedgehog inh 10.
For C[C@@H]1CN([C@H](C)CO)C(=O)c2cc(NS(=O)(=O)c3cn(C)cn3)ccc2O[C@H]1CN(C)C the results were YB-1 expr inh 0.086, PD-1 reverse act 1.4, MITF inhib 1 and Hedgehog inh -3.
`C[C@H](CO)N1C[C@H](C)[C@H](CN(C)CC2CC2)Oc2c(cccc2N(C)C)C1=O` gave YB-1 expr inh 0.16, PD-1 reverse act 1.3, MITF inhib 2 and Hedgehog inh -7.
`Cc1cc(=O)oc2ccc(OCC(=O)NCc3ccco3)cc12` gave PD-1 reverse act 3.9 and MITF inhib -18.
For Cc1ccc(S(=O)(=O)Nc2cccc3c2O[C@@H](CN(C)C(=O)Nc2c(C)noc2C)[C@@H](C)CN([C@H](C)CO)C3=O)cc1 the results were YB-1 expr inh -0.21, PD-1 reverse act 0.8, MITF inhib 0 and Hedgehog inh -37.
C[C@@H]1CN([C@H](C)CO)C(=O)c2cc(N(C)C)ccc2O[C@H]1CN(C)S(=O)(=O)c1ccccc1 was read as YB-1 expr inh 0.52, MITF inhib -7 and Hedgehog inh 3.
Cc1cc(C(=O)Nc2cccc3c2O[C@@H](CN(C)C(=O)Nc2ccc4c(c2)OCO4)[C@H](C)CN([C@@H](C)CO)C3=O)n(C)n1 was read as YB-1 expr inh -0.083, MITF inhib -2 and Hedgehog inh -17.
CC(C)=CCc1c(O)cc2occ(-c3ccc4c(c3)OCO4)c(=O)c2c1O was read as YB-1 expr inh 0.39, MITF inhib -5 and Hedgehog inh 14.
Screening COc1ccc(NC(=O)CN(c2ccccc2F)S(C)(=O)=O)cc1 returned PD-1 reverse act 1.9 and MITF inhib -7.
C[C@@H]1CN([C@H](C)CO)C(=O)c2cccc(NC(=O)Nc3ccc4c(c3)OCO4)c2O[C@H]1CN(C)Cc1ccc(C(=O)Nc2ccccc2N)cc1 was read as YB-1 expr inh -0.38, PD-1 reverse act -1.5 and MITF inhib 22.
`COc1ccc(CN(C)C[C@H]2OCCCC[C@@H](C)Oc3ccc(NC(=O)CCC(F)(F)F)cc3C(=O)N([C@H](C)CO)C[C@@H]2C)cc1` gave YB-1 expr inh 0.12, MITF inhib -5 and Hedgehog inh -16.
O=C(CCSc1nc(-c2ccco2)cc(C(F)(F)F)n1)N1CCN(c2ccccn2)CC1 was read as PD-1 reverse act -1.0 and MITF inhib -12.
Screening Cc1ccc(N(C(C)C(=O)Nc2ccc(Cl)c(C(F)(F)F)c2)S(C)(=O)=O)cc1 (centres undefined) returned PD-1 reverse act -4.1 and MITF inhib 17.
`C[C@@H]1CCCCO[C@H](CN(C)C(=O)C2CCCCC2)[C@@H](C)CN([C@H](C)CO)C(=O)c2cc(NC(=O)Nc3ccc(C(F)(F)F)cc3)ccc2O1` gave YB-1 expr inh 0.0035, PD-1 reverse act -1.5, MITF inhib 14 and Hedgehog inh 24.
N#Cc1cccc(CSc2nnc(CCCO)n2-c2ccccc2)c1 was read as PD-1 reverse act 0.1 and MITF inhib -15.
Screening Cc1c(NC(=S)NCc2ccccn2)c(=O)n(-c2ccccc2)n1C returned PD-1 reverse act 1.3 and MITF inhib -7.
Screening Cc1ccc(NC(=O)Cn2cnc3sc(C(=O)OC(C)C)c(C)c3c2=O)cc1 returned PD-1 reverse act -1.6 and MITF inhib -10.
For CC1(C)C(=O)C=CC2(C)C1CC(O)C1(C)C3=CCC(c4ccoc4)C3(C)CCC21 (centres undefined) the results were YB-1 expr inh -0.23, PD-1 reverse act -11, MITF inhib 77 and Hedgehog inh -15.
COc1ccccc1NC(=O)CC(NC1CCCCC1)C(=O)O (centres undefined) was read as PD-1 reverse act 4.5 and MITF inhib -14.
`C[C@@H]1CCCCO[C@@H](CN(C)Cc2ccncc2)[C@@H](C)CN([C@H](C)CO)C(=O)c2cc(NS(=O)(=O)c3ccccc3)ccc2O1` gave YB-1 expr inh 0.29, MITF inhib -7 and Hedgehog inh 58.
C[C@@H]1CCCCO[C@@H](CN(C)Cc2ccc3c(c2)OCO3)[C@@H](C)CN([C@H](C)CO)C(=O)c2cc(NC(=O)CCC(F)(F)F)ccc2O1 was read as YB-1 expr inh 0.048, MITF inhib -26 and Hedgehog inh -24.
Screening C[C@@H]1CN([C@H](C)CO)C(=O)c2cc(NC(=O)C3CC3)ccc2O[C@@H]1CN(C)Cc1ccncc1 returned YB-1 expr inh 0.11, PD-1 reverse act 1.4 and MITF inhib 0.
Screening C=C1CC[C@@H]2[C@](C)(CO)[C@H](O)CC[C@@]2(C)[C@@H]1C/C=C1/C(=O)OC[C@H]1O returned YB-1 expr inh -0.36, PD-1 reverse act -14, MITF inhib 33 and Hedgehog inh 39.
For CS(=O)(=O)N(CC(=O)Nc1ccc(Br)c(Cl)c1)c1ccc(F)c(Cl)c1 the results were PD-1 reverse act -6.5 and MITF inhib 2.
Screening Cc1ccc(S(=O)(=O)N(C)C[C@@H]2Oc3ccc(NC(=O)Nc4c(C)noc4C)cc3CC(=O)N([C@H](C)CO)C[C@@H]2C)cc1 returned YB-1 expr inh -0.51, MITF inhib -13 and Hedgehog inh -40.
`O=C(NCc1ccccn1)c1ccccc1C(=O)c1ccccc1` gave PD-1 reverse act 1.3 and MITF inhib -5.
For CNC[C@H]1Oc2c(NC(=O)Nc3cccc4ccccc34)cccc2C(=O)N([C@H](C)CO)C[C@@H]1C the results were YB-1 expr inh -0.15, PD-1 reverse act 0.0, MITF inhib 0 and Hedgehog inh -55.

Bioassay records (PubChem BioAssay)
